GIV-Gai inh – blocks GIV peptide binding to rat Galpha-i3; Galpha-i3/FITC-GIV peptide fluorescence polarization, 90 min; hits give low values; scaled: aluminum fluoride 0%, vehicle 100%; percent of control (FP), % (no concentration beside the values); AID 1224905; P08753; hit rate 0.42% among 210,000;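 active = replicate mean at 85% of control or lower, very high polarization wells dropped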;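 also: wells of about 15 µL received 100 nL stock; the first replicate is given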
Target sequence (P08753 whole entry, looked up): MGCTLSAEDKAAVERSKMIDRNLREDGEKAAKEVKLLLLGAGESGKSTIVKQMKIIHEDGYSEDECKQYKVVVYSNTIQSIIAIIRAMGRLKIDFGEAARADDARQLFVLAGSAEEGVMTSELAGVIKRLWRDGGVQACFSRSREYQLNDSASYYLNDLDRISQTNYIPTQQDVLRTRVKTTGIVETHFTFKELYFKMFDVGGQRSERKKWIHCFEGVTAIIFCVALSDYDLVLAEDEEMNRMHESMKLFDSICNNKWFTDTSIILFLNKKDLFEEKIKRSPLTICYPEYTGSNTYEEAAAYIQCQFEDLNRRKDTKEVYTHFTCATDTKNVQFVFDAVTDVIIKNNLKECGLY
Sa growth 42C – S. aureus growth inhibition. relative growth, % (test concentration not listed). S. aureus RN4220 growth, OD600, 20 h, 42 °C; hits give low values. AID 720641. hit rate 0.53% among 170,000;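 active = growth at 42 °C up to 50% and 20 or more points under that at 30 °C, or under 10% at both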;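 also: 300 nL library stock went into each well; scaled to the means of positive and negative controls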
HCMV NEC inh – disrupts HCMV UL50-UL53 complex binding | inhibition, % (concentration not given with the values) | hit rate 0.15% among 190,000 | AID 1918969 | HTRF UL50-UL53 interaction, normalized percent inhibition;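 active = both replicates at 50% or more, plus weaker picks with an unusually low signal ratio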;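 also: stock transfer was 100 nL into about 20 µL; 0% = negative control wells and 100% = wells with untagged competitor protein; inactives centre near -12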
Sa growth 42C second temp – second read-out of Sa growth 42C, no call of its own (marks repeat the call); relative growth, %; measured here: growth at 30 °C;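 optical density after 20 h as mean of two plates; 100% = untreated growth and lower means inhibition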
Numbers without * were called inactive; · = no result given. Not a hit list, and some 0.79% of all compounds hit somewhere here.

compound | GIV-Gai inh | Sa growth 42C | Sa growth 42C second temp | HCMV NEC inh
O=C(O)CCC(C(=O)O)N1C(=O)/C(=C\c2ccco2)SC1=S (stereo unspecified) | 80* | 92 | 84 | -3
CCOc1cc(C=C2C(=O)NC(=O)NC2=O)ccc1OCCOCCOc1ccc(C)cc1 | 112 | · | · | 46*
CCOCCCn1c(SCC(=O)Nc2ccc(CC)cc2)nc2ccccc2c1=O | 105 | 94 | 93 | ·
COc1ccc(S(=O)(=O)NCC(c2ccc3c(c2)OCO3)N2CCN(C)CC2)cc1 (stereo unspecified) | 101 | 86 | 81 | -42
CCCN1CCc2nc(NC(=O)c3ccc(S(=O)(=O)N4CCc5ccccc5C4)cc3)sc2C1 | 109 | · | · | 6
COc1ccc(C2=NCC(CSc3nnc(-c4ccc5c(c4)OCO5)o3)S2)cc1 (stereo unspecified) | · | 87 | 94 | 10
COc1ccc2c(c1)cc(C(=O)NCCOc1ccccc1)n2C | 97 | · | · | -8
O=C(c1ccc(S(=O)(=O)N2CCOCC2)cc1)N1CCN(c2cccc(Cl)c2)CC1 | · | 97 | 89 | -8
O=C(N/N=C/c1ccc(OC(=O)c2ccco2)cc1)c1ccccn1 | 107 | 131 | 81 | -41
COC(=O)c1sc2nc[nH]c(=O)c2c1C | 109 | 82 | 88 | -7
COc1ccc(-[n+]2cc([O-])on2)cc1 | 105 | 127 | 89 | ·
O=C(O)CSC1CC(=O)N(c2cccc(C(F)(F)F)c2)C1=O (stereo unspecified) | · | 77 | 90 | -8
CCCn1c(=O)c2ccccc2n2c(SCC(=O)Nc3ccccc3CC)nnc12 | 98 | · | · | 6
CC(C(=O)O)N1C(=O)/C(=C2/C(=O)N(C)c3ccccc32)SC1=S (stereo unspecified) | 98 | 86 | 59 | ·
C/C(=N/O)c1ccc(N2C(=O)C3C4C=CC(C4)C3C2=O)cc1 (stereo unspecified) | 100 | 93 | 88 | -13
CCCCn1nc(C(N)=O)c2ccccc2c1=O | · | 101 | 88 | -20
Cc1ccc(C(=O)COC(=O)C2C3C=CC(C3)C2C(=O)OCC(=O)c2ccc(C)c(C)c2)cc1C (stereo unspecified) | · | 81 | 82 | -15
O=c1[nH]c2ccccc2cc1CN(CC1CCCO1)S(=O)(=O)c1ccccc1 (stereo unspecified) | 96 | 110 | 94 | -8
CCN(CC)S(=O)(=O)c1ccc(N2CCCC2)c(C(=O)OCC(=O)c2cccs2)c1 | · | 116 | 104 | 1
Cn1cc(C(=O)NCCCN2CCCC2=O)c2[nH]c(=O)n(-c3ccc(Cl)cc3)c(=O)c21 | 100 | · | · | -27
O=C(Nc1ccccc1C(=O)O)c1ccccc1Cl | · | 153 | 78 | 10
O=C1COc2cc(O)ccc21 | · | 77 | 84 | -25
Cc1ccc(C(=O)NCc2nnnn2-c2ccc(C)c(C)c2)cc1 | 101 | 87 | 89 | ·
CCCn1c(=O)c2ccc(C(=O)NC(C)CC)cc2n2c(=O)n(CC(=O)NC(C)(C)C)nc12 (stereo unspecified) | 107 | · | · | -7
Cc1ccc(OCC(=O)Nc2cccc(C(=O)OCc3cc(=O)n4nc(C)sc4n3)c2)cc1 | 102 | 96 | 91 | ·
Cc1ccc(-c2c(C)sc3ncn(C(C)C(=O)O)c(=O)c23)cc1C (stereo unspecified) | 95 | 170 | 99 | -16
Cc1c(C(=O)Oc2cc(Cl)cc(Cl)c2)n(C)oc1=O | 102 | 105 | 107 | 4
Cc1cc2c(cc3c(SCc4ccc(Cl)cc4)nncn32)o1 | 107 | 119 | 87 | ·
COc1cccc(CN(C)C(=O)/C=C/c2ccco2)c1OC | · | 61 | 44 | -46
Cc1cc(C)c2c(-c3ccccc3)nc(SCC#N)n2n1 | · | 103 | 91 | -57
CCC(=O)N1CCc2cc(S(=O)(=O)CCC(=O)O)ccc21 | 103 | 115 | 87 | -11
Cc1ccc(C2=C/C(=C\c3ccccc3C)C(=O)O2)cc1 | 108 | 91 | 90 | ·
CCCS(=O)(=O)N1CCN(C(=O)c2cc(-c3ccc(OC)cc3)n[nH]2)CC1 | 110 | · | · | -10
CC(C)n1c(NCc2ccccc2)nc2c1c(=O)[nH]c(=O)n2C | 104 | 101 | 93 | 0
Cc1nn(S(=O)(=O)c2ccccc2)c(C)c1S(=O)(=O)N1CCOCC1 | 103 | · | · | -31
CN(C)/C=C/c1cc2c(cn1)C(=O)c1ccccc1-2 | · | 59 | 37 | -12
CCOc1ccc2nc(SCc3nnc(-c4cccs4)o3)sc2c1 | · | 97 | 76 | -36
CCC(C)NC(=O)c1cc(C2CC2)on1 (stereo unspecified) | 103 | 112 | 97 | ·
CCOC(=O)c1sc(-n2[nH]c(C)c(Cc3ccccc3Cl)c2=O)nc1C | 101 | · | · | -17
COc1ccc(Cc2nnc(SCC(=O)Nc3ccc(F)cc3)o2)cc1 | 101 | 82 | 63 | -3
Cc1cccc(C2CC(=O)NC3=C2C(=O)CC(c2cccs2)C3)c1 (stereo unspecified) | 105 | 88 | 79 | ·
CCOC(=O)c1cc(S(=O)(=O)N2CCN(c3ccccn3)CC2)cn1C | 102 | · | · | -19
CCN(CC)C(=O)C1CCC(=O)N(c2ccc(OC)cc2)C1c1ccc(OC)c(OC)c1 (stereo unspecified) | 99 | 98 | 88 | -22
COc1cccc(NS(=O)(=O)c2cc(OC)ccc2OC)c1 | 105 | 85 | 88 | -12
N#C/C(=C\c1ccncc1)c1ccc(NC(N)=O)cc1 | 99 | 96 | 84 | -62
Cc1cc(C)nc(SCC(=O)N(c2ccccc2)C(C)C)n1 | · | 111 | 71 | -25
O=C1/C(=C/c2cccs2)CCSc2ccccc21 | 96 | · | · | -12
COc1ccc(C(=O)N(Cc2ccco2)Cc2ccco2)cc1 | 103 | 107 | 82 | -19
COc1ccc(N=Cc2cn(-c3ccccc3)nc2-c2cc3ccccc3o2)cc1 | 97 | 97 | 96 | 12
O=C(Cc1nc(-c2cccs2)no1)Nc1ccc(F)cc1 | 99 | 92 | 92 | -11

New compounds follow
compound | GIV-Gai inh | Sa growth 42C | Sa growth 42C second temp | HCMV NEC inh
Cc1cccc(N(C)S(=O)(=O)c2ccc3c(c2)CCC(=O)N3)c1 | 115 | 87 | 90 | ·
O=S1(=O)C[C@H](NCC2CCCO2)[C@@H](S(=O)(=O)c2cccs2)C1 (stereo partly specified) | 94 | · | · | -6
COC(=O)c1ccc(C(=O)OC)c(NC(=O)c2cc(-c3ccc(C)o3)nc3ccccc23)c1 | 109 | · | · | -1
CCOC(=O)C1CCN(c2ncnc3c2c(-c2ccccc2)cn3-c2ccc(C)c(Cl)c2)CC1 | 102 | 99 | 87 | ·
Cn1c(C(=O)NCC2CCCO2)cc2c(=O)oc3ccccc3c21 (stereo unspecified) | 106 | · | · | -6
COc1cc(OC)c(NC(C)C(=O)Nc2cccc(C#N)c2)cc1Cl (stereo unspecified) | · | 109 | 90 | -30
CC(COc1ccc2c(c1)OCO2)NC(=O)Cc1n[nH]c(=O)c2ccccc12 (stereo unspecified) | 99 | 103 | 96 | -1
COC(=O)c1cc2c(C)nn(C)c2s1 | 104 | 83 | 87 | -19
Cc1ccc(C2=NNC(c3cccs3)S2)cc1 (stereo unspecified) | · | 82 | 70 | -42
O=C(NCCN1CCCCC1)c1ccc(/C=N/O)nc1 | 99 | 84 | 100 | -22
Cc1nnc(C(=O)Nc2ccc(C(=O)NCc3ccccn3)cc2)s1 | 98 | · | · | -34
C=CCOc1c(Br)cc(CNCCNC(=O)c2nonc2N)cc1OC | 99 | · | · | -24
CCn1nc(-n2cnnc2)c(NS(=O)(=O)c2ccccc2)c1C | 97 | · | · | -18
COc1ccc(-n2c(SCC(=O)Nc3cc(C)cc(C)c3)nc3c(oc4ccccc43)c2=O)cc1 | 102 | 115 | 86 | -27
CC1CCCC(C)N1C(=O)CSCc1ccco1 (stereo unspecified) | · | 89 | 88 | -34
COC(=O)C1(C)Cc2ccccc2C(=O)O1 (stereo unspecified) | 100 | 90 | 89 | 4
C=CCn1c(SC(C)C(N)=O)nnc1C1CCCCC1 (stereo unspecified) | · | 98 | 86 | -25
CC(=O)c1ccc(NC(=O)CN(C)S(=O)(=O)c2cnc[nH]2)cc1 | 106 | 111 | 86 | -20
Cc1c(-c2ccc(Cl)cc2)nc2ccccc2c1C(=O)Nc1ccc(S(N)(=O)=O)cc1 | 106 | · | · | -26
CCOC(=O)C1CCN(c2nc(-c3ccc(OC)c(OC)c3)nc3ccccc23)CC1 | 105 | · | · | 11
O=C(NCCN1CCOCC1)c1nn2c(C(F)(F)F)cc(-c3ccccc3)nc2c1Cl | 96 | · | · | -27
O=C1NC(=O)N(CCC2=CCCCC2)C(=O)/C1=C\c1cc2c3c(c1)CCCN3CCC2 | 262 | 77 | 78 | -8
O=C(OCCn1ccnc1)c1ccc(-c2ccccc2)cc1 | · | 3.0* | 1.8* | -32
O=C(Nc1ccc(F)c(Cl)c1)N1CCN(C(=O)c2nsc3ccccc23)CC1 | 106 | 102 | 91 | -25
O=C(Sc1ccc(Cl)cc1)N1CCOCC1 | 102 | 93 | 105 | 3
OCCSc1nnc2c(n1)[nH]c1ccccc12 | · | 104 | 96 | -81
Cc1cccc(NC(=O)CSc2nc3ccc(NC(=O)c4ccccc4)cc3s2)c1 | 97 | 102 | 72 | -27
Nc1nc(SCC(=O)N2CC(=O)Nc3ccccc32)n[nH]1 | · | 106 | 89 | -16
CC(=O)NCc1ccc(C(=O)CSc2nnc(C3COc4ccccc4O3)n2C)cc1 (stereo unspecified) | · | 97 | 73 | -22
CC1(C(=O)NC2CCCC2)Cn2c(ccc2-c2ccccc2)C(=O)N1CCc1ccc(Cl)cc1 (stereo unspecified) | 98 | · | · | -14
CCN(CC)S(=O)(=O)c1ccc(NC(=O)COC(=O)C2=NNC(=O)CC2)cc1 | · | 96 | 96 | -30
O=C(Cn1cc(/C=C2/SC(=O)NC2=O)c2ccccc21)Nc1ccccc1 | 99 | 102 | 85 | -3
CC1=C(C(=O)Nc2ccc(C)cn2)C(c2ccc(Cl)c([N+](=O)[O-])c2)C2=C(CC(C)(C)CC2=O)N1 (stereo unspecified) | 105 | · | · | -27
Cc1ccc(-c2nnc(Nc3ccc(S(N)(=O)=O)cc3)c3ccccc23)cc1S(N)(=O)=O | · | 100 | 95 | -10
CC(C)OC(=O)CCC1(C(=O)O)CCC(=O)NC1 (stereo unspecified) | 99 | 97 | 81 | -16
COc1cc2oc(=O)c(CC(=O)N3CCCCC3)c(C)c2cc1OC | 103 | 90 | 86 | -47
Cc1ccc(OCC(=O)N(Cc2sccc2C)C2CCS(=O)(=O)C2)cc1 (stereo unspecified) | 105 | 106 | 91 | 4

Structural class, the entries above with an NH in an aromatic ring.
compound | GIV-Gai inh | Sa growth 42C | Sa growth 42C second temp | HCMV NEC inh
COC(=O)c1sc2nc[nH]c(=O)c2c1C | 109 | 82 | 88 | -7
O=c1[nH]c2ccccc2cc1CN(CC1CCCO1)S(=O)(=O)c1ccccc1 (stereo unspecified) | 96 | 110 | 94 | -8
Cn1cc(C(=O)NCCCN2CCCC2=O)c2[nH]c(=O)n(-c3ccc(Cl)cc3)c(=O)c21 | 100 | · | · | -27
CCCS(=O)(=O)N1CCN(C(=O)c2cc(-c3ccc(OC)cc3)n[nH]2)CC1 | 110 | · | · | -10
CC(C)n1c(NCc2ccccc2)nc2c1c(=O)[nH]c(=O)n2C | 104 | 101 | 93 | 0
CCOC(=O)c1sc(-n2[nH]c(C)c(Cc3ccccc3Cl)c2=O)nc1C | 101 | · | · | -17
CC(COc1ccc2c(c1)OCO2)NC(=O)Cc1n[nH]c(=O)c2ccccc12 (stereo unspecified) | 99 | 103 | 96 | -1
CC(=O)c1ccc(NC(=O)CN(C)S(=O)(=O)c2cnc[nH]2)cc1 | 106 | 111 | 86 | -20
OCCSc1nnc2c(n1)[nH]c1ccccc12 | · | 104 | 96 | -81
Nc1nc(SCC(=O)N2CC(=O)Nc3ccccc32)n[nH]1 | · | 106 | 89 | -16
